TSHR agonist = agonists of human thyroid stimulating hormone receptor | HEK293-CNG-TSHR cells (CNG channel as cAMP sensor), membrane potential dye, cAMP | AID 926 | hit rate 0.48% among 73,000 | Potency, µM (series often up to 57.1 µM), for the others: top-dose activation, hits mostly activators | P16473; active = well fitted activation curve of enough size with the parental cells flat; inconclusive = any curve in the parental cells; inactive = parental cells flat and receptor cells flat or falling; note: potency is the fitted concentration of half-maximal effect; % of control where 0% means no effect; weak receptor curves with flat parental cells got no call and are not listed
Target sequence (P16473 whole entry, looked up): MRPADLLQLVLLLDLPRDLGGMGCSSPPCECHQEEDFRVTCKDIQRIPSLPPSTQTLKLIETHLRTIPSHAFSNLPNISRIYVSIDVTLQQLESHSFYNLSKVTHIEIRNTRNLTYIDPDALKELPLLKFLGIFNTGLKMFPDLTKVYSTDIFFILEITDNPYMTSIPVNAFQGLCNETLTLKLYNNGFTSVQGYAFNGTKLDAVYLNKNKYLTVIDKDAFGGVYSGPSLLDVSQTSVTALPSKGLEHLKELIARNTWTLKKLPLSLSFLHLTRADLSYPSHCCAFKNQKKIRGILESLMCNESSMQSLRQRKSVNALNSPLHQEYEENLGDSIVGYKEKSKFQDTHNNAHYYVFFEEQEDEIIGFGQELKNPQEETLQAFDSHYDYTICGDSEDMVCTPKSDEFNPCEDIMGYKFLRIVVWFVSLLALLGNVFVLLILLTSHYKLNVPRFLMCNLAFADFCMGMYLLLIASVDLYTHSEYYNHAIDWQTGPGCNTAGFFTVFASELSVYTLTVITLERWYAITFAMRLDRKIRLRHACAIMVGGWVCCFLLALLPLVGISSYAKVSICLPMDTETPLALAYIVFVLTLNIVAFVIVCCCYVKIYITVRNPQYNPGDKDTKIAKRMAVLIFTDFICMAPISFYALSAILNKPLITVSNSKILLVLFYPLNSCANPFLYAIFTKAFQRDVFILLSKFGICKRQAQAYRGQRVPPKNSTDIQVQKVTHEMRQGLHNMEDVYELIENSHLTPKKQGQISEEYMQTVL
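HEK 293 cells stably expressing TSHR and a cAMP-gated CNG channel; parental CNG-only cells as counterscreen. Cells preloaded 60 min with membrane potential dye plus 100 uM RO 20-1724, then compound 30 min; fluorescence read at 590 nm.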
A647 fluor = A647 region autofluorescence; max dye-equivalent concentration, M; AID 592; Compound fluorescence, A647 channel (570/671 nm), Tris buffer; 59,000 tested, under 10 active; active means above 1 µM dye equivalent; inconclusive means 0.1 to 1 µM; inactive means 0.1 µM or less;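 note: values scaled relative to a standard on each plate; highest value over a series up to 38 µM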
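Tris 100 mM pH 8.0; cpd + A647 stds pin-transferred; 15 min RT; CCD imager, ex 570/em 671. Output = A647-equivalent conc. per cpd conc.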
Resorufin autofl = compound fluoresces in the resorufin spectral region. max dye-equivalent concentration, M. hit rate 0.04% among 59,000. Compound fluorescence, resorufin region 547/598 nm, buffer; stronger effect = higher value. AID 588; active = above 10 nM dye equivalent; inconclusive = 1 to 10 nM; inactive = 1 nM or less; a few of its hits are not listed in these tables; note: highest value over a series up to 38 µM
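Read-out: intrinsic compound fluorescence at ex 547/em 598 nm after 15 min at RT in pH 8.0 Tris (100 mM). Values expressed as resorufin-equivalent concentration from per-plate standard series.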
A488 fluor = compound autofluorescence in A488 spectral region | compound autofluorescence, A488 spectral region, dye equivalency; stronger effect = higher value | max dye equivalency, M | hit rate 0.1% among 59,000; active = above 10 nM dye equivalent; inconclusive = 1 to 10 nM; inactive = 1 nM or less; about half of its hits are not listed in these tables;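 note: highest value over a series up to 38 µM; compound alone in buffer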
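Intrinsic compound fluorescence is measured in 100 mM Tris buffer at pH 8.0 following 15 min incubation at room temperature. Intensities at 480 nm excitation/540 nm emission are calibrated to an on-plate A488 concentration series, giving dye-equivalent concentrations.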
AID923 = qHTS Assay for Allosteric/Competitive Inhibitors of Caspase-1: Spectroscopic Profiling in AFC Spectral Region | compound fluorescence, AFC spectral region (405/520 nm); almost no hit is shown here | hit rate 1.1% among 75,000 | Potency, µM (top dose mostly 57.5 µM), for inactives: top-dose fluorescence increase, most hits filed as activators; active = well fitted activation curve with a large enough effect; inconclusive = small, poorly fitted or top-dose-only effect;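 note: potency is the fitted concentration of half-maximal effect; 0% is about no effect; scaled to a free AFC standard on each plate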
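Compound autofluorescence profiled at 405 nm ex/520 nm em during kinetic caspase 1 run (50 nM enzyme, 5 uM Ac-WEHD-AFC, HEPES pH 7.5, 10 mM DTT). Titration up to 57 uM; baseline from regression intercept, normalized to AFC standard curve.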
* hit, by the source's call; i = inactive; ? = inconclusive; . = no result given; [ ] = dose if it differs, or a comment. This is a subset, so the mix of outcomes need not match the whole.

structure	TSHR agonist	A647 fluor	Resorufin autofl	A488 fluor	AID923
COC(=O)[C@@]1(Cc2ccc(OC)cc2)[C@H]2c3cc(C(=O)N(C)C)n(CCSCCO)c3C[C@H]2CN1C(=O)c1ccccc1	24.1%	.	.	.	-0.2%
COc1ccc2c(c1)c1ncnc(N3CCN(Cc4ccc5c(c4)OCO5)CC3)c1n2C	16.4%	2.5e-09	i	i	0.5%
CN(CCCNC(=O)C1CCCN(S(=O)(=O)c2cnc[nH]2)C1)c1ccccc1 (stereo not given)	-2.9%	.	.	.	0.2%
Cn1cc(/C(Cc2ccccc2)=N\O)c2ccccc21	20µM*	1.58e-08	i	i	-1.4%
COc1cc(C2NC(=O)NC(C)=C2C(=O)OC2CCCC(C)C2)ccc1O (stereo not given)	?	.	.	.	-2.9%
COc1ccc(OCC(=O)Nc2cccc(OC)c2)cc1	12.3%	3.5e-09	i	i	1.3%
C=CCSc1nc2c(N)ncnc2n1[C@@H]1O[C@H](CO)[C@@H](O)[C@@H]1O	2.0%[11.4 µM]	1e-09	i	i	2.6%[11.5 µM]
NC(=O)C1(N2CCCCC2)CCN(CC(=O)Nc2ccccc2-c2ccccc2)CC1	15.4%	3.16e-08	i	i	0.2%
CCc1cc2c(=O)n(Cc3ccco3)c(SCc3c(C)noc3C)nc2s1	?	1e-09	i	i	1.9%
Cc1cc(C)n(-c2ncnc3c2oc2ccccc23)n1	13.2%	1.7e-09	i	i	-1.1%
CC(C)(C)NCC(=O)c1c[nH]c2ccccc12	.	2.6e-09	i	i	.
COc1ccc(OC)c(C(=O)COC(=O)c2cc(C)oc2C)c1	?	1.41e-08	i	i	4.5%
COCCNC(=O)c1cc(Br)ccc1Cl	8.3%	3.79e-08	i	i	2.0%
Cc1occc1-c1nnc(SCc2nc3ccccc3c(=O)n2CC#N)n1C	?	3.42e-08	i	i	-0.1%
Nn1c(SCC(=O)Nc2ccc(F)cc2)nnc1-c1ccccn1	2.1%	2.97e-08	i	i	-1.6%
C=C(C)C1Cc2nc(N)nc(C)c2C1 (stereo not given)	10.7%	1.99e-08	i	i	1.4%
O=C(CSc1ncc(-c2ccc(F)cc2)[nH]1)N1CCCCC1	-4.3%	2.3e-09	i	i	0.0%
CCN(CC)CCCN(Cc1cc2cc(OC)ccc2[nH]c1=O)C(=O)Nc1ccccc1	5.7%	1e-09	i	i	0.9%
Cc1cc2c(SCc3ccccc3Cl)nc(N)nc2nc1C	17.8%[11.4 µM]	1e-09	i	i	0.0%[11.5 µM]
Cc1ccc2c(COC(=O)c3n[nH]c4ccccc34)cc(=O)oc2c1	21.1%	3.12e-08	i	i	0.7%
Cc1cc(C)nc(SCCC(=O)N(C)C)n1	-1.3%	9.4e-09	i	i	-0.7%
COc1cc2c(C(=O)N3CCN(C4CCCCC4)CC3)cn(CC(C)C)c(=O)c2cc1OC	?	1e-09	i	i	-0.5%
CCOC(=O)/C=C(\C)Sc1cc(=O)oc2ccccc12	11.8%	2.34e-08	i	i	-0.3%
Nc1nsnc1C(=O)NCCO	0.2%	2.7e-09	i	i	-0.5%
COc1ccc(C(=O)Cn2c(Br)nc3c2c(=O)n(C)c(=O)n3C)cc1OC	.	2.4e-09	i	i	.

Brought forward from above: 4 compounds, then new ones.
structure	TSHR agonist	A647 fluor	Resorufin autofl	A488 fluor	AID923
COc1cc2c(C(=O)N3CCN(C4CCCCC4)CC3)cn(CC(C)C)c(=O)c2cc1OC	?	1e-09	i	i	-0.5%
CCOC(=O)/C=C(\C)Sc1cc(=O)oc2ccccc12	11.8%	2.34e-08	i	i	-0.3%
Nc1nsnc1C(=O)NCCO	0.2%	2.7e-09	i	i	-0.5%
COc1ccc(C(=O)Cn2c(Br)nc3c2c(=O)n(C)c(=O)n3C)cc1OC	.	2.4e-09	i	i	.
O=C(O)C1C2C=CC(C2)C1C(=O)Nc1cccc(F)c1 (stereo not given)	3.9%	1.77e-08	i	i	0.0%
Cc1ccc(Cl)cc1N1CCN(C(=O)C2CCN(S(=O)(=O)c3c(C)nn(C)c3C)CC2)CC1	.	1.27e-08	i	i	0.6%
Nc1ccccc1-c1nc2ccccc2[nH]1	-22.3%	1e-09	i	i	10.8%
O=C(Nc1ccn(-c2ccccc2)n1)c1ccc(S(=O)(=O)N2CCCCCC2)cc1	26.5%	3.66e-08	i	i	-0.5%
Cc1cc(N/C=C/C(=O)c2cccc3ccccc23)no1	.	1e-09	i	i	.
COc1ccc(S(=O)(=O)N2CCN(C(=O)NCc3ccccc3)CC2)cc1	-0.5%	1.31e-08	i	i	-0.3%
O=C1c2ccccc2C(=O)c2c1ccc(C(=O)O)c2-c1ccc2ccccc2c1	?	3e-09	i	i	-1.8%[11.5 µM]
CCOc1ccc(CNc2ccc3c(c2)ncn3C)cc1	0.3%	2.94e-08	i	i	-0.6%
Cc1ccc(C)n1NC(=O)c1ccco1	-1.2%	1.8e-08	i	i	-1.5%
COc1ccc2cc(C)c(SCC(=O)Nc3cc(C)on3)nc2c1	2.5%	5.31e-08	i	i	0.7%
OC[C@@H]1O[C@@H](n2cnc3cncnc32)[C@@H](O)[C@H]1O	-9.6%	2.9e-09	i	i	0.0%
CN1C2C=C3C(C#N)=C(N)C(C#N)(C#N)[C@@H](c4ccsc4)[C@@H]3C1CC2 (stereo not given in full)	.	3e-09	i	i	.
OCCNc1nc2ccc(Cl)cc2[nH]1	-5.6%	2.7e-09	i	i	1.0%
COc1ccccc1N1CCN(CC(O)COc2ccc3c(C)cc(=O)oc3c2)CC1 (stereo not given)	18.4%	1e-09	i	i	0.5%
Cc1cccc(OCCC(=O)Nc2ccc(S(=O)(=O)N3CCCC3)cc2)c1	-0.5%	2.43e-08	i	i	0.1%
O=C(Cc1c[nH]c2ccccc12)N1CCc2ccccc21	-2.4%	1e-09	i	i	-1.2%
O=C(CSc1nc2ccccc2o1)NCc1n[nH]c(=O)c2ccccc12	1.1%	1e-09	i	i	1.5%
CCc1ccc(NC2=NC(C(=O)c3ccccc3)CC(=O)N2)cc1 (stereo not given)	-7.0%	4.5e-09	i	i	2.8%
COC(=O)c1cn(NC(=O)c2ccc3c(c2)OCO3)c(=O)c2ccccc12	11.8%	2.6e-08	i	i	1.2%
O=C(O)CC(c1ccccc1)n1cccc1 (stereo not given)	3.3%[11.4 µM]	7.5e-09	i	i	-1.8%
CN(C(=O)c1coc(=O)c2ccccc12)c1ccc(F)cc1	-2.1%[11.4 µM]	1.51e-08	i	i	0.8%
COC(=O)C/C=C1\c2ccccc2[C@H](OC)[C@H]1C	-5.6%[11.4 µM]	.	.	.	1.6%[11.5 µM]
Cc1cc(C)c(Cn2c(=O)n(CCCC(=O)NCc3ccco3)c(=O)c3ccccc32)c(C)c1	3.7%	3.71e-08	i	i	-0.8%
O=C(C1CCC1)N1CCN(Cc2ccccc2)CC1	8.1%	2.5e-09	i	i	0.8%
COc1ccc(NC(=O)C2CCC(=O)N2S(=O)(=O)c2ccc(C)cc2)c(OC)c1 (stereo not given)	2.5%	1.7e-09	i	i	-0.4%
Nc1cc(C(=O)N2CCCC2)cc(C(=O)N2CCCC2)c1	-1.9%	1e-09	i	i	1.3%
Cc1cc(C)c(S(=O)(=O)Nc2nnc(C)s2)c(C)c1	-1.5%	.	.	.	-1.1%
CCc1nnc(SCC(=O)Nc2ccc(C(C)=O)cc2)nc1CC	-2.2%	5.72e-08	i	i	-0.9%
CCC1C(O)=C(c2ccccn2)C(=N)N1c1ccccc1 (stereo not given)	8.0%	5.8e-09	i	i	1.5%
Cc1ccc(Cn2c(Sc3nccc(C)n3)nc3c2c(=O)[nH]c(=O)n3C)cc1	-5.3%	3.68e-08	i	i	0.2%
O=C(CSc1ncccc1-c1nc2ccccc2[nH]1)N1CCN(c2ccccc2F)CC1	27.0%	1.8e-09	i	i	1.5%
CCCC[C@H]1C[C@@H]1[C@@H]1N(C(C)=O)[C@H](c2cccc(OC)c2)CC12CC2	?	.	.	.	-0.7%
CCC(C)NC(=O)c1c(C)cc(=O)oc1C (stereo not given)	.	2.2e-09	i	i	-0.1%
Cc1cc(Cl)ccc1OCC(=O)Nn1c(C)ccc1C	12.5%	1e-09	i	i	-2.0%
CCn1nc(C(=O)OCC(=O)N2CCc3ccccc32)c2ccccc2c1=O	2.0%	1e-09	i	i	2.6%
CC(C)C(NC(=O)c1cccc(S(=O)(=O)N2CCOCC2)c1)C(=O)NCCc1ccccn1 (stereo not given)	1.1%	2e-09	i	i	0.2%
Cn1c(=O)c2c(nc(SCC(=O)N3c4ccccc4CCc4ccccc43)n2C)n(C)c1=O	23.4%	1e-09	i	i	0.0%
COc1ccc(CC(=O)Nc2cccc(-c3nnc(-c4cccc(C)c4)o3)c2)cc1OC	?	1e-09	i	i	1.1%
COc1ccc(NC(=O)N2CCCC3(CCN(C(=O)c4cc(C(F)(F)F)cc(C(F)(F)F)c4)CC3)C2)cc1	?	2.42e-08	i	i	-0.3%
CN(C)S(=O)(=O)c1ccc(C(=O)N2CCC(c3nc4ccccc4o3)CC2)cc1	14.9%	3.3e-09	i	i	-0.3%
COc1ccccc1OC(C)C(=O)O (stereo not given)	3.2%	8.5e-09	i	i	1.0%
CC(=O)N1CCN(c2ccc(S(=O)(=O)N3CCCCC3)cn2)CC1	-2.7%[11.4 µM]	3.51e-08	i	i	-0.8%
CCC(=O)N1CCc2cc(S(=O)(=O)N3CCc4ccccc43)ccc21	.	1.9e-08	i	i	2.6%
COc1ccccc1CNC(=O)C1CCN(S(=O)(=O)c2c(C)noc2C)CC1	0.4%	1e-09	i	i	-1.7%
COc1cc(C2CC(C(F)(F)F)n3ncc(C(=O)O)c3N2)cc(OC)c1OC (stereo not given)	.	6.96e-08	i	i	.
COc1ccc(OC)c(NC(=O)CSc2nnc(CCCO)n2-c2ccccc2)c1	4.8%	1e-09	i	i	2.1%
COc1ccc(Oc2ncc3nc(-c4ccc(F)cc4)c(=O)n(Cc4cccs4)c3n2)cc1	4.0%	2.7e-09	i	i	20.2%
CCOC(=O)Cn1cnc2sc3c(c2c1=O)CCC3	4.7%	1e-09	i	i	0.7%
O=C(c1c(F)cccc1F)N1CCN(c2ccccc2F)CC1	8.6%	2.29e-08	i	i	-3.1%
[O-][N+]12CCN(CC1)c1ccccc12	8.7%	7.9e-09	i	i	-0.3%

(more compounds)
structure	TSHR agonist	A647 fluor	Resorufin autofl	A488 fluor	AID923
O=c1c(-c2nc3ccccc3o2)c2oc3ccccc3n2c2ccccc12	-15.3%	1.23e-08	i	i	-1.6%
CCCS(=O)(=O)N1CCCC(C(=O)NCCCN(C)c2ccccc2)C1 (stereo not given)	1.9%	1e-09	i	i	1.2%
O=S(=O)(c1ccc(S(=O)(=O)N(Cc2ccc(F)cc2)C2CCCC2)cc1)N1CCCC1	8.8%	1.2e-09	i	i	0.9%
CCCN(CCC)S(=O)(=O)c1ccc2c(c1)CCCN2C(C)=O	.	1e-09	i	i	-0.2%
CN(C)S(=O)(=O)N1CCN(C(=O)N2CCCCC2)CC1	14.8%	1.54e-08	i	i	-2.2%
O=C(Cc1ccccc1)N[C@H](c1ccccc1)P(=O)(O)CO	-11.7%	3.74e-08	i	i	-1.2%
CCOC(=O)C1Cc2c([nH]c3ccccc23)CN1 (stereo not given)	4.0%	2.31e-08	i	i	2.4%
CCCc1cc(=O)n2[nH]cnc2n1	-2.0%	1.94e-08	i	i	-2.7%
